# High-throughput results (PubChem)
# E coli growth: E. coli growth inhibition; Escherichia coli growth, OD600, 23 h; active compounds read low; OD600 absorbance (no concentration beside the values); 0.21% of 330,000 active;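 active means OD600 absorbance below the run mean of sample wells minus 3.6 SD, in any replicate, cut at about 0.56 in these data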;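 further: stock transfer was 300 nL into about 60 µL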
# Ecoli rRNA inh: inhibits bacterial ribosomal RNA function over humanized ribosomes; GFP signal change (wild-type ribosome), % (test concentration not listed); 1.6% of 350,000 active; E. coli WT GFP vs humanized-ribosome RFP mutants, fluorescence, 24 h; active compounds read low; DMSO median 0, no signal -100; AID 720706;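 active means significant combined selectivity score with lowered wild-type GFP, culture density cut under 30%, mutant RFP and density less affected; inactive means any of these conditions unmet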; further: one replicate is shown; some compounds called inactive have numbers as strong as hits
# MLL AF4-AF9 inh: MLL-AF4/AF9 protein interaction inhibition; 0.47% of 350,000 active; P42568; AlphaScreen, biotin-AF4 peptide binding to FLAG-AF9; inhibition, % at 10 µM;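 active means every replicate reaching a set inhibition limit, whatever the replicate mean, cut at about 25% in these data; inconclusive means mean inhibition reaches that limit but some replicates miss it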;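 further: 0% = plate neutral control median and 100% = total signal loss; the record names both 10 and 1 µM as test concentration; the first replicate is given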
# ALR inh: inhibitors of human sulfhydryl oxidase ALR | P55789 | purified ALR, DTT oxidation, H2O2 HRP-luminol luminescence | inhibition, % (no concentration beside the values) | 3.8% of 290,000 active;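 active means mean and each replicate at 75% or more; inconclusive means only one of the two met; inactive means neither met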;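 further: stock transfer was 7.5 nL into about 7.5 µL; 0% = neutral wells and 100% = wells with inactivated enzyme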
# Target sequence (P55789 whole entry, looked up): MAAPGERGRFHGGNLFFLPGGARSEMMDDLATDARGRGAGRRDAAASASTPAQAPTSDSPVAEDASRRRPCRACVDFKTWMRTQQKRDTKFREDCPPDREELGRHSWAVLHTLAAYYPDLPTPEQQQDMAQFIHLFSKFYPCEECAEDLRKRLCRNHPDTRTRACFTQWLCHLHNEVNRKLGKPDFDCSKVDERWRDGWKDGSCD
# FGF22 binding: FGF22 (human) thermal shift binding. recombinant FGF22 thermal shift, SYPRO orange fluorescence; percent of sucrose octasulfate shift, DMSO zero. Q9HCT0. calls only at 9.99 µM. 1.5% of 340,000 active;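 active means melting point raised past a set limit in the mean and every replicate; inconclusive means no clear call; three in four hits are not shown here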
# Target sequence (Q9HCT0 whole entry, looked up): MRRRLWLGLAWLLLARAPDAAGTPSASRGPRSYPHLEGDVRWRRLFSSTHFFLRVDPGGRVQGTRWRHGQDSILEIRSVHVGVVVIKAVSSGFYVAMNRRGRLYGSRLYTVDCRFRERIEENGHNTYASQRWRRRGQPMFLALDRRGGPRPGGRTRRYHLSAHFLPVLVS
# HNF4A DNA FP: change in binding of human HNF4 alpha to DNA. P41235. HNF4a-FITC DNA binding, fluorescence polarization, 1 h. activity change, % at 10 µM. 0.3% of 360,000 active. AID 1224865; in the data active means activity change above about 30%, passing the limit was not always enough;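 further: controls were the assay level and a saturating level of protein; the project sought stronger binding though the title names inhibitors; some compounds called inactive have numbers as strong as hits; positive values seem to mean higher polarization but the record does not say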
# Target sequence (P41235 whole entry, looked up): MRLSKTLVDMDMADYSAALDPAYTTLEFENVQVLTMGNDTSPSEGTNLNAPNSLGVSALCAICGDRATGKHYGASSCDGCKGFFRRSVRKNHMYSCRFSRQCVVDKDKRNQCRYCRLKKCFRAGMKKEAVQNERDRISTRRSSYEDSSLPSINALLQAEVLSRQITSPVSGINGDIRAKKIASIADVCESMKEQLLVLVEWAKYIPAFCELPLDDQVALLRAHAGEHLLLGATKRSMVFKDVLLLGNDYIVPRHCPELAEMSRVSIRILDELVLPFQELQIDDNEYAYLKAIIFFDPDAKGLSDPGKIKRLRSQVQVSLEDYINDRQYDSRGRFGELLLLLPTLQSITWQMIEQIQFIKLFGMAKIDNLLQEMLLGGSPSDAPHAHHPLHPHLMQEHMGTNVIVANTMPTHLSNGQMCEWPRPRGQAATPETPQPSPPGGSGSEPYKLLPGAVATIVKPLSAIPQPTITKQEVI
# Vif TR-FRET: inhibitors of Vif binding to APOBEC3G peptide, primary screen, biochemical, TR-FRET, GST-Vif 1-94, biotin-A3G peptide, dose response retest (AID 1117319) | TR-FRET GST-Vif / biotin-A3G peptide binding; higher % means a stronger effect; test concentration not given here; strong numbers were not always called active | one-dose inhibition, %; IC50 in µM for titrated hits | 0.57% of 260,000 active;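 active means above the screen mean plus three standard deviations and confirmed in dose response; inconclusive means results disagree or hit not tested in dose response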;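 further: Vif residues 1-94 fused to GST binding biotinylated APOBEC3G peptide 110-148; 0% = full assay without inhibitor and 100% = GST in place of GST-Vif; retest series ran down from 100 µM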
# Ecoli rRNA inh OD600: second read-out of Ecoli rRNA inh, no call of its own (marks repeat the call); OD600 change, %; measured here: OD600 growth;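 optical density of the mix in the first replicate; 0 = DMSO median and -100 = no signal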
# Ecoli rRNA inh RFP: further read-out of Ecoli rRNA inh, marked with its call; RFP signal change, %; measured here: RFP humanized mutant strains;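 first replicate; 0 = DMSO median and -100 = no signal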
# * hit, by the source's call; i = inactive; ? = inconclusive; / = not tested or not shown. A portion of the library (hit frequency here may not be typical).
SMILES,E coli growth,Ecoli rRNA inh,Ecoli rRNA inh OD600,Ecoli rRNA inh RFP,MLL AF4-AF9 inh,ALR inh,FGF22 binding,HNF4A DNA FP,Vif TR-FRET
CC(=O)c1c(CC(=O)O)[nH]n(-c2nc3ccccc3s2)c1=O,0.73,/,/,/,/,97*,/,-6.1,7%
COC(=O)C1=C(C(=O)OC)[C@@H]2N(C)c3ccccc3[C@@]23C[C@@H](CO)N(C(=O)NCCBr)C3=N1,/,10,7,1.1,1.2,/,i,3.2,/
CCOC(=O)C1CCN(C(=O)COC(=O)c2ccc3[nH]c4c(c3c2)CCCC4)CC1,0.72,2,2,0.4,-1.8,7,i,3.1,3%
COc1ccc(S(=O)(=O)n2nc(OC(=O)c3ccncc3)cc2N)cc1,0.67,3,25,1.1,-3.2,-2,i,-2.6,-14%
CCNC(=O)C1(C)CCN(Cc2ccc(C#N)cc2)C1 (configuration not stated),/,11,21,-2.7,-7.8,/,i,1.7,/
C[C@@H](NC(=O)C[C@H]1CC[C@@H](NC(=O)CN2CCOCC2)[C@@H](CO)O1)c1ccccc1,/,-2,-1,-0.4,1.6,/,i,/,/
O=C1CC(N2CCN(C/C=C/c3ccccc3)CC2)C(=O)N1Cc1cccs1 (configuration not stated),0.7,/,/,/,/,1,/,-1.1,0%
COc1cc(S(=O)(=O)n2cnc3ccccc32)ccc1Br,0.71,3,9,-0.6,-8.7,/,i,1.1,/
CO[C@H]1CN(C)C(=O)c2cc(NS(=O)(=O)CC(F)(F)F)ccc2OC[C@H](C)N(CC2CCCCC2)C[C@H]1C,/,1,0,-1.9,-1.8,/,i,/,/
Cc1[nH]nc2c1C(c1ccc(-c3ccccc3C#N)o1)C(C#N)=C(N)O2 (configuration not stated),0.66,/,/,/,/,28,/,1.8,10%
COc1cccc(OCCNC(=O)c2ccc(C)cc2)c1,0.65,-6,0,-1.5,-1.7,-41,i,8.6,/
CCCCn1c(N)c(N(C)C(=O)C2CCCC2)c(=O)[nH]c1=O,0.72,5,13,-3.1,-3.0,0,i,-4.6,0%
COc1ccc(CNc2nccs2)cc1OC,0.62,-7,-8,-3.1,3.1,/,/,-3.0,/
O=C(CCN1CCCCC1)NCC[C@H]1CC[C@H](NC(=O)C2CCC2)[C@@H](CO)O1,/,2,3,-1.3,-0.5,/,i,/,/
Cc1cccc(C)c1NC(=O)C1C2C=CC(C2)C1C(=O)O (configuration not stated),0.63,17,9,-1.7,-0.7,-10,i,3.3,-11%
COc1ccc(-c2cc(OC)c3c(C)oc(C)c3c(=O)c2)cc1OC,0.65,10,3,-1.3,?,-1,i,4.7,?
Cc1ccc(SCc2nnc(NC(=O)c3ccccc3)s2)cc1,0.64,/,/,/,/,-6,/,0.1,22%
COc1ccc2c([N+](=O)[O-])c(N3CCCC3)[nH]c2c1,0.63,3,-2,-0.5,3.4,-17,i,-1.2,/
CCN(CC(=O)NCc1ccc(F)cc1)C(=O)/C=C/c1cccs1,0.66,13,-2,0.8,1.0,1,i,-2.5,-1%
COc1ccccc1C(=O)N/C(=C\c1cn(C)c2ccccc12)C(=O)NCCN1CCOCC1,/,15,14,3.5,-7.4,/,i,-1.0,/
Cc1cc(C)c(S(=O)(=O)N2CCOC2CNC(=O)C(=O)NCc2ccccn2)c(C)c1 (configuration not stated),0.69,/,/,/,-0.8,-10,i,-1.7,/
CO[C@H]1CN(C)C(=O)c2cc(NC(=O)c3ccccc3F)ccc2OC[C@H](C)N(C(C)=O)C[C@@H]1C,/,5,8,-0.1,1.6,/,i,/,/
CCNC(=O)C1(C)CCCN(C(=O)CCc2cccs2)C1 (configuration not stated),/,4,9,4.6,-0.7,/,i,-1.3,/
COc1ccc(NC2=NCCC(=O)N2Cc2cccs2)cc1,0.7,/,/,/,/,/,/,1.7,0%
O=C(NCC(F)(F)F)Nc1cccnc1,0.73,/,/,/,/,-7,/,0.1,?
CCC(C)(C)NC(=O)Cc1ccccc1OC,0.68,/,/,/,/,5,/,0.6,-4%
COCCNC(=O)Nc1ccc(F)cc1,0.63,12,2,-4.5,0.5,-8,i,3.0,3%
COc1cccc(NC(=O)N2C[C@H](O)COC[C@@H]3O[C@H](CC(=O)N(C)C)CC[C@H]32)c1,/,1,10,1.7,-1.7,/,i,/,/
O=C(CSc1nc(-c2ccco2)cc(C(F)(F)F)n1)Nc1ccc(C(=O)N2CCOCC2)cc1,0.71,/,/,/,/,-19,/,0.8,-8%
CC(C)NC(=O)Nc1cccc2c1O[C@@H](CN(C)Cc1ccc(Cl)c(Cl)c1)[C@@H](C)CN([C@H](C)CO)C2=O,/,-6,-14,-1.4,1.8,/,i,/,/
O=C(c1cccnc1)N1CCc2ccccc2C1,0.68,/,/,/,/,-2,/,-4.3,29%
CC(C)CCOc1ccc(CO[C@@H]2[C@H]3OC(C)(C)O[C@H]3O[C@@H]2C(O)CO)cc1 (some centres not stated),0.69,18,7,5.7,1.7,87*,i,4.7,-9%
CNC(=O)C[C@@H]1CC[C@H]2[C@H](COc3ccc(NC(=O)c4ccc(F)c(F)c4)cc3C(=O)N2C)O1,/,-1,-6,-2.5,-4.5,/,i,/,/
CCN(CC)C(=O)/C=C/c1ccc(OC)c(S(=O)(=O)N2CCCCC2)c1,0.69,5,11,3.1,-1.4,-5,i,2.6,9%
CC(CC(=O)N1CCN(c2ccccc2)CC1)S(=O)(=O)c1ccc2c(c1)NC(=O)CO2 (configuration not stated),0.66,3,0,1.9,0.1,67,i,2.6,/
CN1CCN(c2nc(-c3ccccc3)nc(-c3ccc(F)cc3)c2C#N)CC1,0.65,7,6,-1.5,4.8,7,i,-1.7,7%
CCc1c(C(=O)Nc2cc(C(=O)OC)ccc2C)csc1C,0.73,5,9,0.2,-0.6,-18,i,0.5,0%
CCn1c(SCC(=O)Nc2ccc(N(C)C)cc2)nnc1-c1ccco1,0.67,-3,-1,-0.9,4.5,/,i,0.7,3%
COc1ccccc1N1CCN(c2nc3ccccn3c(=O)c2C=O)CC1,0.68,/,/,/,/,/,/,2.5,24%
CC(=O)N1CCN(c2ccc([N+](=O)[O-])cc2C#N)CC1,0.67,17,9,6.0,-0.7,-4,i,-1.9,/
Cc1cc(=O)oc2cc(OCC(=O)N3CC[C@@]4(O)CCCC[C@H]4C3)c(Cl)cc12,0.71,6,9,-3.8,0.4,-4,i,1.9,/
O=C(c1cccc(F)c1)N1CC[C@@H]2[C@H](CO)Nc3ccc(-c4ccc(F)cc4)cc3[C@@H]21,/,-30,-52,7.8,-4.3,/,i,/,/
O=C1CCCC2=C1C(c1cccs1)CC(=O)N2c1ccc(F)cc1 (configuration not stated),0.72,/,/,/,-1.2,1,i,-0.1,-2%
Cc1cc(-c2ccccc2)nc(SCc2ccc(C(=O)O)o2)n1,0.7,/,/,/,/,38,/,0.8,9%
COc1cc(O)c(C(CC(=O)N2CCCC2)c2ccc3c(c2)OCO3)c(OC)c1 (configuration not stated),0.72,-4,-7,-3.9,6.3,14,i,-2.9,/
C[C@@H]1CCCCO[C@@H](CN(C)C(=O)Cc2ccccc2)[C@@H](C)CN([C@H](C)CO)C(=O)c2cc(NC(=O)Cc3ccccc3)ccc2O1,/,2,0,-1.6,0.0,/,i,/,/
Cn1cccc1/C=N/NC(=O)c1ccncc1,/,8,4,-0.5,0.3,/,i,2.4,0%
CC1=C(C(=O)NC(C)C)C2(CCC(C)CC2)OC1=O (configuration not stated),0.68,6,7,3.7,-2.5,-8,i,2.3,6%

# Retrieved by structure from above (2):
SMILES,E coli growth,Ecoli rRNA inh,Ecoli rRNA inh OD600,Ecoli rRNA inh RFP,MLL AF4-AF9 inh,ALR inh,FGF22 binding,HNF4A DNA FP,Vif TR-FRET
CCn1c(SCC(=O)Nc2ccc(N(C)C)cc2)nnc1-c1ccco1,0.67,-3,-1,-0.9,4.5,/,i,0.7,3%
C[C@@H]1CCCCO[C@@H](CN(C)C(=O)Cc2ccccc2)[C@@H](C)CN([C@H](C)CO)C(=O)c2cc(NC(=O)Cc3ccccc3)ccc2O1,/,2,0,-1.6,0.0,/,i,/,/

# Later entries:
SMILES,E coli growth,Ecoli rRNA inh,Ecoli rRNA inh OD600,Ecoli rRNA inh RFP,MLL AF4-AF9 inh,ALR inh,FGF22 binding,HNF4A DNA FP,Vif TR-FRET
CCNC(=O)COC(=O)Cc1ccc(Cl)cc1Cl,0.66,0,6,-4.7,-0.6,2,i,-0.4,-1%
CCCN1C(=O)C2(C(C(=O)c3ccc(C)o3)=C(O)C(=O)N2CCCN2CCOCC2)c2ccccc21 (configuration not stated),0.61,/,/,/,5.0,-2,i,-1.6,-3%
O=C(COC(=O)c1ccc(S(=O)(=O)NCc2ccco2)cc1)NCCC1=CCCCC1,0.74,/,/,/,/,/,/,-6.0,13%
COc1ccc(NC(=O)C2Cc3c(-c4cccc(NC(C)=O)c4)ccnc3O2)cc1OC (configuration not stated),/,2,9,1.4,-3.2,/,i,0.3,/
C[C@@H]1ON(C)[C@H]2C[C@H]3c4[nH]c5ccccc5c4CCN3C[C@@H]12,/,6,11,0.1,12,/,i,2.2,-1%
COc1ccc(NC(=O)c2ccc(CNS(=O)(=O)c3cccc(OC)c3)cc2)cc1,0.83,/,/,/,/,-2,/,3.1,?
O=CNCc1nc2ccccc2n1CCc1ccccc1,0.66,7,13,17,-2.1,-7,i,-0.6,/
CCCCC(=O)N(C)c1c(C)nc2ccc(C(=O)Nc3cccc(OC)c3)cn12,/,6,13,-1.6,-3.7,/,i,4.0,/
C[C@@H](O)C#Cc1ccc2c(c1)O[C@H](CN(C)Cc1cncnc1)[C@@H](C)CN([C@@H](C)CO)S2(=O)=O,/,4,5,1.5,1.3,/,i,/,/
Cn1c(CNC(=O)c2ccc(Cl)cc2)nnc1SCC(=O)NC1CCCC1,0.69,4,15,-0.3,0.1,-8,i,1.5,/
O=C(c1cccs1)N1CCN(c2ccc(Cl)cc2)CC1,0.68,-11,-4,1.7,4.3,96*,i,-0.6,/
COCC(=O)N1CC(=O)N2[C@H](C1)[C@@H](c1ccc(-c3ccccc3F)cc1)[C@@H]2CO,/,-1,1,-0.7,-14,/,i,/,/
Cc1ccc(S(=O)(=O)N(CC(=O)Nc2ccc(C(N)=O)cc2)C(=O)N2CCN(C)CC2)cc1,0.66,3,11,-0.9,5.0,-8,i,1.5,/
O=C(CC(=O)c1ccccc1)Nc1ccccn1,0.72,-2,4,0.9,-4.3,-1,i,3.4,/
C[C@H]1CN([C@@H](C)CO)C(=O)c2cc(C3=CCCCC3)cnc2O[C@@H]1CN(C)Cc1cccnc1,/,2,5,0.2,-0.9,/,i,/,/
CCCCCn1c(SCc2cccc(C)c2)nc2c1c(=O)[nH]c(=O)n2C,0.78,2,3,0.6,3.6,-7,i,-2.9,/
C[C@H]1CN([C@@H](C)CO)C(=O)c2cc(NC(=O)C3CCCCC3)ccc2O[C@@H]1CN(C)S(C)(=O)=O,/,1,-5,0.6,-2.6,/,i,/,/
Cc1cc(Br)cn2c(Cc3cccc(F)c3)c(-c3ccc(F)cc3)nc12,/,-22,-20,2.5,-1.2,/,i,7.1,/
C[C@@H]1CN([C@H](C)CO)C(=O)c2cc(NC(=O)C3CC3)ccc2O[C@H]1CN(C)S(=O)(=O)c1ccc(F)cc1,/,2,8,-2.6,-3.4,/,i,/,/
